Screening data: PubChem BioAssay, National Center for Advancing Translational Sciences (NCATS)
Lassa entry inh: Lassa virus entry inhibition. Potency, µM (highest dose often 37.9 µM), for the others: at the highest dose activity change, negative = inhibition, most hits filed as inhibitors. Lassa virus pseudotype entry inhibition, cell reporter; control for the full effect not named in the record. 300,000 tested, 1.2% active; active means well fitted inhibition curve with a large enough effect; inconclusive means small, poorly fitted or top-dose-only effect, or effect the other way; inactive means flat fitted curve, though single readings scatter; tested in HEK293 cells; also: % is scaled to controls: 0 for no effect and ±100 for the full control effect; nearly all actives have a fitted effect of over 50% in size; luciferase read-out
2A StopGo: lowers the luciferase signal of an FMDV 2A StopGo reporter | human cells with a luciferase reporter of 2A StopGo recoding; control for the full effect not named in the record | Potency, µM (doses to about 57.9 µM), for inactives: at the top dose signal change, negative = less light | 410,000 tested, 1.2% active | AID 1159524; active = well fitted falling curve with a large enough effect; inconclusive = small, poorly fitted or top-dose-only effect; inactive = no such curve, though single readings can be large or run the other way; tested in HEK293T cells; also: % is scaled to controls: 0 for no effect and ±100 for the full control effect; nearly all actives have a fitted effect of over 45% in size; luciferase light after 4 h
Cruzain inh Det: cruzain (T. cruzi) inhibition with detergent; Potency, µM, inactives show max response, negative = inhibition, most hits filed as inhibitors; P25779; 200,000 tested, 0.43% active; purified cruzain, Z-FR-AMC fluorescence, 0.01% Triton;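 also: plate controls were neutral wells for no effect and buffer without enzyme for full effect; nearly all actives have a fitted effect of over 40% in size; top concentration of the series not given in the record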
Target sequence (P25779 123-467 limits assumed): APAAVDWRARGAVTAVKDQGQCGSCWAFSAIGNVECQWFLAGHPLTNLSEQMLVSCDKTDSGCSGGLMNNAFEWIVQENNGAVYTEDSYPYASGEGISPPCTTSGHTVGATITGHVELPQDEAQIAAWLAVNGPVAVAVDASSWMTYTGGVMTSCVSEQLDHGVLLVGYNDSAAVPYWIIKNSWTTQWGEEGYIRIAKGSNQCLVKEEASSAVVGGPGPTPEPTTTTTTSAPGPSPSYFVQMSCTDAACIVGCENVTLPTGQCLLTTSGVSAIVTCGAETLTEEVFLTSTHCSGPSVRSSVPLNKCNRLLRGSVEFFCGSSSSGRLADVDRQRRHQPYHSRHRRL
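Enzyme 1.5 nM, Z-FR-AMC 2 uM, NaOAc 100 mM pH 5.5, DTT 5 mM, Triton X-100 0.01%; 15 min RT compound preincubation; kinetic ex360/em450, 60 s delta.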
SARS PLpro yeast: blocks SARS-CoV papain-like protease in a yeast assay. Potency, µM (highest dose often 32.9 µM), without a hit: at the highest dose activity, positive = growth rescue. 330,000 tested, 0.19% active. S. cerevisiae expressing SARS-CoV PLpro, growth rescue; control for the full effect not named in the record; active means well fitted rising curve with a large enough effect; inconclusive means small, poorly fitted or top-dose-only effect; inactive means no such curve, though single readings can be large or run the other way; also: 0% is about no effect; nearly all actives have a fitted effect of over 55% in size; growth read by luminescence after 48 h
NS1 inh: inhibitors of influenza NS1 protein function | 270,000 tested, 0.4% active | AID 2326 | Potency, µM (top dose mostly 46.1 µM), without a hit: at the top dose activity, positive = more growth | S. cerevisiae slowed by influenza A NS1, growth recovery by OD600; active means well fitted rising curve with a large enough effect; inconclusive means small, poorly fitted or top-dose-only effect; inactive means no such curve, though single readings can be large or run the other way; also: nearly all actives have a fitted effect of over 50% in size
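Read-out: OD600 growth recovery of NS1-expressing budding yeast. Cells grown overnight at 30C in -URA glucose medium, washed, resuspended and diluted 1:100 in 2% galactose assay medium, pH 6.0. Same strain lacking NS1 served as positive control.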
RE007 growth inh: less growth of the S. pombe RE007 Vpr strain; S. pombe RE007 Vpr strain, BacTiter-Glo ATP luminescence, 24 h; control for the full effect not named in the record; Potency, µM (doses to about 92.2 µM), for the others: at the top dose activity change, negative = less growth; 360,000 tested, 0.21% active; AID 651644; active = well fitted falling curve with a large enough effect; inconclusive = small, poorly fitted or top-dose-only effect; inactive = no such curve, though single readings can be large or run the other way;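 also: % is scaled to controls: 0 for no effect and ±100 for the full control effect; nearly all actives have a fitted effect of over 50% in size; the assay follows cell death caused by Vpr and the record does not say whether a fall means rescue or toxicity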
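Fission yeast RE007 carrying one integrated HIV-1 vpr copy, seeded at OD 0.01 in PMG+AL medium with 23 nL pinned compound. Grown 24 h at 30 degrees; viability read by BacTiter-Glo luminescence after 5 min.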
Cruzain noTriton: blocks cruzain activity in detergent-free assay | purified cruzain, Z-FR-AMC fluorescence, no detergent | Potency, µM, for inactives: max response, negative = inhibition, usual class: inhibitors | 200,000 tested, 2.3% active;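 also: plate controls were enzyme without inhibitor for no effect and buffer without enzyme for full effect; nearly all actives have a fitted effect of over 40% in size; top concentration of the series not given in the record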
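Purified cruzain at 1.5 nM, pre-incubated 15 min with compound at room temperature in 100 mM sodium acetate pH 5.5, 5 mM DTT, 0.00005% Triton X-100. Reaction started with 2 uM Z-FR-AMC; AMC fluorescence increase over 60 s gives rate.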
MARV entry inh: blocks Marburg virus binding to or entry into cells; 300,000 tested, 1.8% active; Marburg virus pseudotyped entry inhibition, cell reporter; control for the full effect not named in the record; about a third of the inactives were read at about 46 µM; Potency, µM (series often up to 37.8 µM), inactives show at the top dose activity change, negative = inhibition, hits mostly inhibitors; active = well fitted inhibition curve with a large enough effect; inconclusive = small, poorly fitted or top-dose-only effect, or effect the other way; inactive = flat fitted curve, though single readings scatter; tested in HEK293 cells; about a fifth of its hits are not listed in these tables; also: % is scaled to controls: 0 for no effect and ±100 for the full control effect; luciferase read-out
The depositor's hits bear a star; ? = inconclusive; · = not tested or not shown; & = joins results of further samples; [ ] = another dose, or the depositor's remark. Unless noted, calls follow the shape of the dose curve; as a rule, active = well fitted curve in the direction sought with a large enough effect; inconclusive = small, poorly fitted or top-dose-only effect, or another doubt; inactive = no such curve, though single readings can be large; an effect the other way counts as inactive or inconclusive. Potency is read from the fitted curve at half-maximal effect.

molecule	MARV entry inh	2A StopGo	NS1 inh	SARS PLpro yeast	Lassa entry inh	Cruzain noTriton	Cruzain inh Det	RE007 growth inh
CC(NCc1cccc(Cl)c1Cl)C(O)c1ccccc1 (stereo not given)	?	7%	10%	24%	8%	-4%	-1.8%	-4%
Cc1ccccc1Cn1cccc1/C=C1/C(=N)N2C=CSC2=NC1=O	?	?	14%	-13%	?	-2%	-6.1%	3%
CCCN(CC1CC1)C(=S)Nc1ccc(C(C)=O)cc1	0%[46.1 µM]	-3%	·	1%	-8%[46.1 µM]	·	·	-13%
CCOC(=O)c1c(SCCN2CCCCC2)n(-c2ccccc2)c(=S)n(-c2ccccc2)c1=O	-82%	20µM*	·	·	4%	·	·	2%
O=C(N/N=C/c1ccccc1C(F)(F)F)c1ccc2nc[nH]c2c1	·	16%	18%	2%	·	·	·	7%
C=CCN=C1S/C(=C\c2ccc(Cl)cc2)C(=O)N1CC=C	0%[46.1 µM]	-20%	-32%	1%	-8%[46.1 µM]	·	·	-21%
NS(=O)(=O)c1ccc(CCNC(=O)c2ccc3nc(Cc4ccccc4)oc3c2)cc1	·	-15%	·	·	3%[46.1 µM]	12%	-4.5%	·
CCOc1cc(/C=N/Nc2nc(-c3cccc(S(=O)(=O)N4CCCC4)c3)cs2)ccc1O	?	?	10µM*	11%	?	16µM*	-12%	-9%
Cc1ccc(-n2ncc(C(=O)NCCCN3CCCCC3)c2C2CCN(C(=O)OC(C)(C)C)CC2)cc1	·	-19%	·	·	?	-3%	-0.4%	·
CCC(SC1=N/C(=C/c2ccccc2OC)C(=O)N1c1ccccc1)C(=O)Nc1cc(C)on1 (stereo not given)	?	-20%	1%	-6%	-20%	?	0.9%	0%
NS(=O)(=O)c1cccc(NC(=O)CSc2nnc(-c3ccccc3F)n2C2CC2)c1	-6%	-22%	-1%	0%	-18%	·	·	-14%
COc1ccccc1NC(=O)C1=C(C)Nc2nnnn2C1c1ccccc1OC (stereo not given)	-17%	-14%	0%	-1%	2%	-3%	2.9%	8%

(listing goes on)
molecule	MARV entry inh	2A StopGo	NS1 inh	SARS PLpro yeast	Lassa entry inh	Cruzain noTriton	Cruzain inh Det	RE007 growth inh
CCOc1ccccc1N1CCN(C(=O)CC(C)C)CC1	0%	?	5%	-26%	14%	-1%	-1.1%	-16%
CCOC(=O)N/N=C/c1cccnc1	?	3%	4%	-3%	23%	·	·	-4%
CCOc1ccc(OCC)c(NC(=O)C2CCN(S(=O)(=O)c3cccc4nonc34)CC2)c1	0%&0%[46.1 µM]	?	-21%	5%	5%	?	-3.7%	-9%
COc1ccc(CCNC(=O)CSc2ccc3nnc(CCNC(=O)c4ccccc4)n3n2)cc1OC	5%	-24%	12%	2%	9%	·	·	-22%
COc1cc(-c2nnc(COC(=O)c3c4c(nc5ccccc35)CCCC4)o2)cc(OC)c1OC	·	·	7%	-1%	·	?	0.7%	·
CN(CCc1ccccn1)C(=O)c1ccc(OC2CCN(CCc3ccccc3)CC2)cc1	?	5%	3%	4%	6%[46.1 µM]	·	·	2%
O=C(CCC(=O)N(CC(=O)NC1CCCCC1)Cc1ccc(F)cc1)Nc1nccs1	3%[46.1 µM]	-3%	-3%	0%	·	·	·	0%
Cc1cc(C(F)(F)F)nn1CC(=O)N1CCCCC1C (stereo not given)	-7%	-10%	1%	2%	21%	9%	1.0%	-3%
COc1cccc(NC(=S)N(CCC(C)C)C2CCN(C(C)=O)CC2)c1	·	-15%	-1%	-1%	·	·	·	5%
COc1ccc(S(=O)(=O)N(C)CC(=O)NCc2cccnc2)cc1OC	17%	·	2%	2%	-9%	-7%	6.3%	1%
Cc1ccccc1C(=O)NC(=S)Nc1cccc(NC(=O)C(C)C)c1	-8%[46.1 µM]	?	6%	0%	4%	·	·	25%
CC(C)(C)NC(=O)COc1ccc(S(=O)(=O)N2CCCC2)cc1	·	1%	25%	1%	·	·	·	3%

2 compounds drawn at random from those above:
molecule	MARV entry inh	2A StopGo	NS1 inh	SARS PLpro yeast	Lassa entry inh	Cruzain noTriton	Cruzain inh Det	RE007 growth inh
CC(C)(C)NC(=O)COc1ccc(S(=O)(=O)N2CCCC2)cc1	·	1%	25%	1%	·	·	·	3%
O=C(CCC(=O)N(CC(=O)NC1CCCCC1)Cc1ccc(F)cc1)Nc1nccs1	3%[46.1 µM]	-3%	-3%	0%	·	·	·	0%

(list continues)
molecule	MARV entry inh	2A StopGo	NS1 inh	SARS PLpro yeast	Lassa entry inh	Cruzain noTriton	Cruzain inh Det	RE007 growth inh
CN(Cc1cnn(C)c1)Cc1nc(-c2ccc(Cl)cc2)no1	14%[46.1 µM]	-9%	-2%	0%	-11%[46.1 µM]	·	·	-14%
CCOc1ccc(NS(=O)(=O)c2ccc(-c3ccc(=O)[nH]n3)o2)cc1	·	-15%	0%	1%	·	·	·	19%
Cc1ccc(C(C)C)cc1OCC(=O)Nc1ccccc1N1CCCC1	·	8%	12%	-11%	·	·	·	1%
COc1ccc(S(=O)(=O)N2CN3CCN(C3)C2)cc1	·	6%	14%	-3%	·	·	·	-4%
COC(=O)c1cc2c(ccn2-c2ccc(F)cc2)n1Cc1ccc(C#N)cc1	?	-14%	13%	-13%	?	?	-4.7%	-2%
CCOC(=O)c1ccc(NC(=O)CC2C(=O)N(c3ccccc3)C(=O)N2Cc2cccs2)cc1 (stereo not given)	-9%[46.1 µM]	-13%	·	·	-26%[46.1 µM]	1%	-1.7%	·
Cc1cc(C)c2nc(NNC(=O)c3cc(-c4cccs4)nc4ccccc34)sc2c1	?	?	2%	?	?	?	1.8%	-14%
COc1cc(C2NC(=O)NC(C)=C2[N+](=O)[O-])cc(OC)c1OC (stereo not given)	·	-11%	3%	1%	·	·	·	9%
Cc1cc(C(=O)N2CCN(c3ccccc3Cl)CC2)c(C)o1	?	31%[activator]	·	-4%	?	·	·	-6%
CCOc1ccccc1NC(=S)NCC1CCCO1 (stereo not given)	-3%	5%	12%	4%	6%	-9%	0.0%	-16%
O=C(CSc1nnc(CNC(=O)c2ccco2)o1)Nc1ccc(Cl)cc1	·	-16%	1%	-6%	·	·	·	-7%
O=C1CC(C2CCCO2)C(=O)N1c1ccc(Cl)c(Cl)c1 (stereo not given)	19%[46.1 µM]	-15%	2%	0%	-10%[46.1 µM]	·	·	5%

Next part
molecule	MARV entry inh	2A StopGo	NS1 inh	SARS PLpro yeast	Lassa entry inh	Cruzain noTriton	Cruzain inh Det	RE007 growth inh
O=C(c1ccc(S(=O)(=O)N2CCC(c3nc4ccccc4s3)CC2)cc1)N1CCCCC1	7%	7%	·	·	-1%	·	·	-2%
O=S(=O)(Cc1ccc(Cl)cc1)NCc1cccnc1	·	-11%	-1%	0%	·	·	·	-18%
CC1CCCCC1NC(=S)NC(=O)c1cccs1 (stereo not given)	·	8%	-12%	-3%	·	·	·	-20%
N#CC1CC(c2ccc([N+](=O)[O-])cc2)=NN1c1ccc([N+](=O)[O-])cc1 (stereo not given)	?	-14%	·	-1%	11%[46.1 µM]	·	·	16%
O=C(NCc1ccc2c(c1)OCO2)C(=O)NCC1OCCN1S(=O)(=O)c1ccc(Br)cc1 (stereo not given)	-26%[46.1 µM]	-25%	18%	0%	?	·	·	2%
CC(C)c1cc(C(=O)NC2CCCc3c2cnn3-c2ccccc2F)no1 (stereo not given)	·	-27%	-17%	-2%	·	·	·	13%
CCCCn1c(N)c(N(CCOC)C(=O)c2oc3ccc(OC)cc3c2C)c(=O)[nH]c1=O	4%	-15%	5%	-2%	?	·	·	19%
O=CN1N=C(c2ccccc2)CC1c1ccccc1[N+](=O)[O-] (stereo not given)	-15%	-5%	4%	8%	-5%	7%	-0.1%	-15%
COc1cccc(S(=O)(=O)Nc2ccc(C(=O)N3CCCCCC3)cc2)c1	-22%[46.1 µM]	27%	-5%	1%	-19%[46.1 µM]	·	·	7%
O=C(NCCN1CCCCC1)/C(=C/c1ccco1)NC(=O)c1ccccc1	5%	21%	5%	2%	6%	·	·	-22%
CCCCN(C)CCNC(=O)c1cc2c(=O)[nH]c3ccccc3c2n1C	?	3%	9%	0%	14%	·	·	-6%
CCC(Sc1nc2ccc(C)cc2[nH]1)C(=O)O (stereo not given)	8%	·	0%	6%	0%	0%	-1.6%	-5%

Reprinted from the results shown for reference:
molecule	MARV entry inh	2A StopGo	NS1 inh	SARS PLpro yeast	Lassa entry inh	Cruzain noTriton	Cruzain inh Det	RE007 growth inh
O=C(c1ccc(S(=O)(=O)N2CCC(c3nc4ccccc4s3)CC2)cc1)N1CCCCC1	7%	7%	·	·	-1%	·	·	-2%
O=S(=O)(Cc1ccc(Cl)cc1)NCc1cccnc1	·	-11%	-1%	0%	·	·	·	-18%
CC1CCCCC1NC(=S)NC(=O)c1cccs1 (stereo not given)	·	8%	-12%	-3%	·	·	·	-20%

Continued.
molecule	MARV entry inh	2A StopGo	NS1 inh	SARS PLpro yeast	Lassa entry inh	Cruzain noTriton	Cruzain inh Det	RE007 growth inh
O=C(C1CC=CCC1)N1CCC(CO)(Cc2ccc(Cl)cc2)CC1 (stereo not given)	·	3%	-2%	1%	·	·	·	10%
O=S(=O)(NCCc1ccc2c(c1)OCCO2)c1cccs1	?	83%[activator]	-2%	-3%	-6%	6%	1.1%	8%
Cc1cc(/C=C2\SC(=S)NC2=O)c(C)n1C1CC1	3%	8%	-28%	-12%	?	16µM*	-0.3%	11%
CC1CCN(C(=O)Cn2c(=O)n(Cc3ccc4c(c3)OCO4)c(=O)c3ccccc32)CC1	?	-6%	-8%	2%	3%	-16%	0.1%	4%
C=CCOc1ccnc(-c2ccccc2)n1	5%[46.1 µM]	22%	5%	0%	-4%	·	·	8%
O=C(NCCc1ccc(Cl)cc1)c1ccc(CS(=O)(=O)c2ccc(Cl)cc2)o1	·	-9%	·	·	-32%[46.1 µM]	4%	-1.5%	·
